Source: PubChem BioAssay
YopH inh: YopH (Yersinia) phosphatase inhibition. fluorescence Ex485/Em525. 0.16% of 140,000 active. inhibition, %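 (about 10 µM by stock and volumes)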. AID 898;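 active = inhibition of 50% or more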;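 also: controls were vehicle for no effect and minimum signal wells for full effect; inactives centre near -20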
Mtb H37Rv: M. tuberculosis H37Rv growth inhibitors, H37Rv strain (AID 1626) | inhibition, % at 10 µM, or IC50 in µM where a hit was titrated | 0.95% of 220,000 active | M. tuberculosis H37Rv growth inhibition; higher % means a stronger effect;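 active = confirmed in a dose series; inconclusive = inhibition above 80% but not taken into the dose series; inactive = below 80% or under 30% at every dose of the series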;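 also: bacteria incubated seven days before Alamar blue readout; 0% = bacteria only wells and 100% = bacteria with antibiotic wells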
Arbovirus anti: antivirals against arbovirus infection; arbovirus infection cell-based antiviral screen; inhibition, % at 10 µM; 0.37% of 200,000 active; AID 1251;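 active = inhibition from about 30%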;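 also: bluetongue infection of BSR cells; cell survival read as ATP light after 72 h; 0% = infected wells without compound and 100% = uninfected wells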
RecA splice inh: blocks M. tuberculosis RecA intein splicing. P9WHJ3. cell-free RecA intein splicing, fluorescence. inhibition, %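 (about 9 µM by stock and volumes)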. 0.75% of 290,000 active. AID 2221; in the data active = inhibition above about 30%; inconclusive = no clear call, values can overlap the other calls;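 also: 0% = vehicle wells and 100% = reference inhibitor control wells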
Target sequence (P9WHJ3 whole entry, looked up, canonical isoform): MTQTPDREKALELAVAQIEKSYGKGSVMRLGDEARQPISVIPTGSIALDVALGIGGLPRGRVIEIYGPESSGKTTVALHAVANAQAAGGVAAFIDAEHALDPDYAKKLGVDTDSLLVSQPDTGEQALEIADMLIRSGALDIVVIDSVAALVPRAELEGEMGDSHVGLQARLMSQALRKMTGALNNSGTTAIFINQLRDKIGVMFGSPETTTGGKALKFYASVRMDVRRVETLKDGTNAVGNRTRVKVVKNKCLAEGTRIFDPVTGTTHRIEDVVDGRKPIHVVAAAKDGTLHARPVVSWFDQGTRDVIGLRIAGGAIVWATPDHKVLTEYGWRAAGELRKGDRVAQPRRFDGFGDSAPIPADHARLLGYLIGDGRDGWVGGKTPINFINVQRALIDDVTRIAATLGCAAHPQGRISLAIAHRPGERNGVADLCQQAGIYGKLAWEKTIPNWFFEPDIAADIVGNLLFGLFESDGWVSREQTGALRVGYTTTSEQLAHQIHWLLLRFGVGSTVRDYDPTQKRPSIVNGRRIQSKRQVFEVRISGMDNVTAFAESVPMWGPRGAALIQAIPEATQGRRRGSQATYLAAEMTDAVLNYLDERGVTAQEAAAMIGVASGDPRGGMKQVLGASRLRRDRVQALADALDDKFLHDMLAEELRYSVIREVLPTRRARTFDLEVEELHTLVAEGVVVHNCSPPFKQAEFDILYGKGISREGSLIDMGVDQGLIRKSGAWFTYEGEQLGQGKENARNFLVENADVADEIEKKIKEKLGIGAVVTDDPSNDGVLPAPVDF
Mtb bLac sens: beta-lactam sensitization of Mtb H37Rv; AID 434955; 0.27% of 330,000 active; inhibition, % at 25 µM; M. tuberculosis H37Rv growth with meropenem, percent inhibition; hits of this screen are not shown here;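 active = about 74% or more and at least 40 points above the plate without the antibiotic, then above 30% in a dose series; inconclusive = first-round hits that could not be retested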;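 also: growth measured after seven days incubation then overnight dye step; 0% = bacteria only wells and 100% = bacteria with antibiotic; twin plates without the antibiotic show which effects depend on it; some results filed as inactive read as strong as hits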
Arbovirus anti repeat: second read-out of Arbovirus anti, no call of its own (marks repeat the call); inhibition, %; measured here: 10K subset replicate screen; many hits read low in the repeat;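 first of two repeat runs on a subset; 0% = infected and 100% = uninfected wells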
Starred values were filed as active, the others as inactive; ? = inconclusive; / = not tested or not shown. Some of the compounds tested; the hit share may differ from the screen's.

SMILES | YopH inh | Mtb H37Rv | Arbovirus anti | RecA splice inh | Mtb bLac sens | others
CCc1cccc(C)c1NC(=O)CN1CCN(S(=O)(=O)c2ccc(C(C)(C)C)cc2)CC1 | / | / | / | 10 | -5
CN1/C(=C\C(=O)COC(=O)c2ccccc2O)C(C)(C)c2ccccc21 | / | ? | / | 12 | 97
COc1cc(C)c(S(=O)(=O)Nc2ccccc2F)cc1C | -12 | -7% | 2 | 3.3 | -7
Cc1ccc(CC(=O)N2CC(C)OC(C)C2)cc1 (configuration not stated) | 2 | -3% | 6 | 0.0 | -8
CSc1nc(-c2ccco2)nn1C(=O)c1ccc(C)cc1 | -13 | 5% | 7 | 15 | -2
COc1ccc(CNC(=O)C(c2ccco2)N(C(=O)c2csnn2)c2cccc(C)c2C)cc1 (configuration not stated) | -5 | -3% | 3 | 0.2 | -8
O=C1CN(C(=O)CSc2nncn2-c2ccccc2)c2ccccc2N1 | -23 | 2% | 9 | / | -7
CCOC(=O)CNC(=O)c1ccc(Br)s1 | / | 1% | / | 1.4 | 1
COC(=O)CSc1nnc(CNC(=O)c2cccs2)n1-c1cccc(C)c1 | -36 | -4% | -1 | -0.3 | /
CCC1CCCCN1CCCNC(=O)c1ccc2c(c1)c(C)c(C)n2CC (configuration not stated) | / | / | / | 2.5 | 0
COc1ccccc1CNC(=O)C(=O)NCC1CCCN1S(=O)(=O)c1cccs1 (configuration not stated) | / | / | / | 1.2 | 0
Cc1ccc(S(=O)(=O)N(C)CC(=O)OCC(=O)NC(c2ccccc2)c2ccccc2)cc1 | -6 | 0% | 9 | / | -9
COc1ccc(S(=O)(=O)NCCc2cn3cccc(C)c3n2)cc1OC | -51 | -2% | 3 | 0.4 | -2
O=C(CCSCCc1ccccn1)Nc1ccc(Cc2ccncc2)cc1 | / | 72% | -14 | 2.5 | 30
O=S(=O)(NC1CCCC1)c1ccc(S(=O)(=O)N2CCCN(Cc3ccccc3)C2)cc1 | -55 | 3% | -28 | 1.3 | 1
CCCOc1ccc(-c2nc(C#N)c(N3CCN(C)CC3)o2)cc1 | -8 | 8% | -8 | 5.6 | 22
CCc1c(C)nc(N2CCN(Cc3ccccc3)CC2)[nH]c1=O | -13 | 17% | 6 | -5.2 | -8
Cc1ccc(S(=O)(=O)NCCCCCC(=O)Nc2ccccn2)cc1 | -15 | 9% | 0 | -0.7 | /
CCC(C)NC(=O)C1(C)CCC(=O)N1CCc1ccc(OC)c(OC)c1 (configuration not stated) | 12 | -5% | 1 | -1.6 | -5
Cc1cccc(C)c1OC(=O)CSc1nnc(-c2ccccc2O)o1 | -13 | 30% | 6 | / | 93
Cc1c(NS(=O)(=O)c2cccc(C(=O)O)c2)c(=O)n(-c2ccccc2)n1C | / | / | / | -0.8 | -1
COc1ccc(C2C(C#N)=C(N)N(c3ccccc3C#N)C3=C2C(=O)CCC3)cc1CN1CCCC1 (configuration not stated) | -15 | -3% | 3 | -13 | 7
CCOC(=O)N1CCC(N(CCOC)C(=O)Nc2ccc(Cl)cc2)CC1 | -27 | / | 0 | -6.2 | -2
FC(F)(F)c1cnc(Sc2nc3nccc(-c4ccc(Cl)cc4)n3n2)c(Cl)c1 | -31 | / | -23 | 6.1 | 0
Cc1ccc(S(=O)(=O)NC2CC(C)(C)NC(C)(C)C2)c(C)c1C | / | / | / | -3.8 | 3

Arranged by heavy-atom count (low to high): 12 of the compounds above
SMILES | YopH inh | Mtb H37Rv | Arbovirus anti | RecA splice inh | Mtb bLac sens | others
CCOC(=O)CNC(=O)c1ccc(Br)s1 | / | 1% | / | 1.4 | 1
Cc1ccc(CC(=O)N2CC(C)OC(C)C2)cc1 (configuration not stated) | 2 | -3% | 6 | 0.0 | -8
CSc1nc(-c2ccco2)nn1C(=O)c1ccc(C)cc1 | -13 | 5% | 7 | 15 | -2
CCc1c(C)nc(N2CCN(Cc3ccccc3)CC2)[nH]c1=O | -13 | 17% | 6 | -5.2 | -8
CCCOc1ccc(-c2nc(C#N)c(N3CCN(C)CC3)o2)cc1 | -8 | 8% | -8 | 5.6 | 22
Cc1cccc(C)c1OC(=O)CSc1nnc(-c2ccccc2O)o1 | -13 | 30% | 6 | / | 93
CCC(C)NC(=O)C1(C)CCC(=O)N1CCc1ccc(OC)c(OC)c1 (configuration not stated) | 12 | -5% | 1 | -1.6 | -5
Cc1c(NS(=O)(=O)c2cccc(C(=O)O)c2)c(=O)n(-c2ccccc2)n1C | / | / | / | -0.8 | -1
FC(F)(F)c1cnc(Sc2nc3nccc(-c4ccc(Cl)cc4)n3n2)c(Cl)c1 | -31 | / | -23 | 6.1 | 0
COc1ccccc1CNC(=O)C(=O)NCC1CCCN1S(=O)(=O)c1cccs1 (configuration not stated) | / | / | / | 1.2 | 0
O=S(=O)(NC1CCCC1)c1ccc(S(=O)(=O)N2CCCN(Cc3ccccc3)C2)cc1 | -55 | 3% | -28 | 1.3 | 1
COc1ccc(CNC(=O)C(c2ccco2)N(C(=O)c2csnn2)c2cccc(C)c2C)cc1 (configuration not stated) | -5 | -3% | 3 | 0.2 | -8

(next part)
SMILES | YopH inh | Mtb H37Rv | Arbovirus anti | RecA splice inh | Mtb bLac sens | others
O=C(NC(c1ccccc1)c1ccccc1)c1ccc(S(=O)(=O)C(F)F)cc1 | -7 | -8% | 0 | / | -3
Cc1cc2c(cc1C)C(c1cc(Br)ccc1F)CC(=O)N2 (configuration not stated) | -17 | 4% | -3 | -0.5 | -8
CSCCNC(=O)c1ccc(OC2CCN(CCc3ccccc3)CC2)cc1 | / | 9% | -1 | -14 | -2
CN1CCN(C(=O)CC2(CC(=O)O)CCCC2)CC1 | / | -7% | 11 | -4.5 | 0
O=C(CCn1cnc2ccccc2c1=O)Nc1nc2c(s1)CCCC2 | -24 | 10% | 1 | -1.0 | -2
COc1ccc(C(=O)CCC(=O)N2CCN(c3cc(C)ccc3C)CC2)cc1 | / | / | / | -1.1 | 81
CC1=CN2C(=N)/C(=C/c3ccc([N+](=O)[O-])o3)C(=O)N=C2S1 | -17 | 5% | -1 | -0.9 | 100
CCOC(=O)c1cc(NC(=O)Nc2ccccc2OC)c(C)nc1C | 23 | 1% | -7 | 1.0 | -5
COc1ccc(CNC(=O)CN(c2ccc(OC)cc2)S(=O)(=O)c2c(C)[nH]c(=O)[nH]c2=O)cc1 | / | / | / | 4.5 | -9
CN(Cc1cn(C)nc1-c1ccccc1F)CC1CCCCO1 (configuration not stated) | / | 3% | 4 | 0.0 | -6
COc1ccc(OC)c(NC(=O)C2CC(=O)n3ncnc3N2)c1 (configuration not stated) | -29 | -7% | 1 | -2.7 | -1
CCSc1nc(C)cc(C)c1S(=O)(=O)c1ccccc1C | -24 | 8% | -4 | 1.7 | -1
CCc1ccccc1S(=O)(=O)c1c(C)cc(C)nc1Cl | / | / | / | 2.8 | -3
CSc1ccc(Cn2nnc(C(=O)Nc3ccc(C)c(C)c3)c2N)cc1 | -50 | 4% | 15 | -1.2 | 9
CN(C)S(=O)(=O)c1ccc2oc(SCC(=O)Nc3ccccc3F)nc2c1 | / | 1% | -6 | -2.7 | -9
O=C(O)c1ccc(COc2cccc(CO)c2)cc1 | -15 | -2% | 8 | -1.6 | -1
CCNC(=S)N1CC(C)OC(C)C1 (configuration not stated) | -34 | -9% | 9 | -1.4 | -8
CCCOc1ccc(N2C(=O)C3C(C(C)C)NC4(C(=O)c5ccccc5C4=O)C3C2=O)cc1 (configuration not stated) | 8 | -6% | 2 | -0.5 | -3
CC(=O)N(CCN(C)C)c1nc2cc3c(cc2s1)OCCO3 | / | / | / | -2.8 | -1
CCOC(=O)N1CCN(CC(O)COc2cc(C)ccc2C(C)C)CC1 (configuration not stated) | -17 | -2% | 2 | -0.6 | -1
CC(C)OC(=O)CN1C(=O)c2ccccc2C1=O | -21 | -8% | 5 | -2.4 | -8
CCC1Nc2ncnc(N3CCN(c4ccccc4)CC3)c2N(Cc2ccc(Cl)cc2)C1=O (configuration not stated) | / | / | / | 6.7 | 64
CCOc1ccccc1N1CCN(C(=O)NCc2ccc(C)cc2)CC1 | / | / | / | -4.6 | -3
O=C(CSc1nc2ccccc2c(=O)n1-c1ccccc1)N1CCC1 | / | -2% | 1 | -4.3 | -7
Cn1c(=O)[nH]c(=O)c2c1nc(SCCN1CCOCC1)n2CCCc1ccccc1 | -42 | 4% | 3 | -3.8 | -2 | Arbovirus anti repeat=5
Other results follow.
SMILES | YopH inh | Mtb H37Rv | Arbovirus anti | RecA splice inh | Mtb bLac sens | others
CN(C(=O)COC(=O)C1CCN(S(=O)(=O)c2ccc3c(c2)OCCO3)CC1)C1CCCCC1 | / | / | / | 0.6 | -8
CCOC(=O)CSc1nc2ccccc2c(=O)n1C | -27 | -5% | -5 | -0.1 | -15
CCc1ccc(C(=O)NC(C(=O)O)C(C)C)cc1 (configuration not stated) | 7 | -19% | 4 | -0.4 | 8
COc1ccc(C2CC(c3ccccc3)=NN2C(=O)CSc2nccc(=O)[nH]2)cc1 (configuration not stated) | -18 | -3% | 7 | 2.2 | 1
CCc1nnc(NC(=O)CN2C(=O)/C(=C/c3cc(OC)c(OC)c(OC)c3)SC2=S)s1 | -28 | -3% | -17 | -12 | 1
CCc1ccc(NC(=O)CSCCO)cc1 | -28 | 79% | 3 | -1.4 | 81
CCOc1cc(N2CCOCC2)c(OCC)cc1NC(=O)c1ccc(S(C)(=O)=O)cc1 | / | -18% | 2 | -0.7 | -10
Cc1ccc(/C=N/NS(=O)(=O)c2ccc([N+](=O)[O-])cc2)o1 | -6 | 2% | 0 | 4.7 | 7
O=C(CN1CCN(C(=O)c2ccccc2)CC1)Nc1ncc(Br)cc1Br | -17 | 6% | -1 | -20 | -2
CN(C)c1ccc(C(C(=O)NC(C)(C)C)N(C(=O)c2csnn2)C2CC2)cc1 (configuration not stated) | -49 | -14% | 6 | -2.0 | 12
COc1ccc(NC(=O)CSCC(=O)Nc2cccc3ncccc23)cc1 | / | / | / | 4.9 | -10
O=C(NCCc1ccccc1)C(=O)NN=C1CCCC1 | -17 | / | 2 | -3.4 | -7
O=C(NCCO)c1cc2ccccc2c(=O)s1 | -33 | -1% | 2 | -1.2 | -4
CN1C(=O)CSC1=Nc1ccc(Br)cc1 | / | / | / | 0.6 | -5
Cc1cc(=O)[nH]c(CCl)n1 | / | -8% | 4 | 7.4 | 44
O=C(Nc1ccccc1)Nc1n[nH]c2nnc(-c3ccccc3)c(-c3ccccc3)c12 | / | / | / | 0.8 | 4
CCOc1ccc(C(=O)NCCN(C)C)cc1 | -8 | 5% | 9 | -1.3 | -2
CN1CCCC(OC(=O)c2ccc(C#N)cc2)C1 (configuration not stated) | / | / | / | -1.2 | ?
O=C(CN1C(=O)NC2(CCCC2)C1=O)N1CCN(S(=O)(=O)c2cccc(C(F)(F)F)c2)CC1 | / | / | / | -5.6 | 3
O=C(Nc1ccc([N+](=O)[O-])cc1)c1cn(-c2ccccc2)nc1-c1cc2ccccc2o1 | -21 | -8% | 1 | 0.6 | 3
CC(C)(C)C(=O)Oc1cc(N)n(S(=O)(=O)c2ccc(F)cc2)n1 | -29 | 5% | -3 | 4.6 | -8
CCOc1ccc(NC(=O)C2CCN(S(=O)(=O)c3cccs3)CC2)cc1 | / | / | / | -5.0 | 6
CCOC(=O)Cn1nc(C)n(-c2ccccc2)c1=O | -50 | -15% | 6 | -0.7 | -4
NNC(=O)c1csc(CS(=O)(=O)c2ccc(Cl)cc2)n1 | / | 1% | / | 0.5 | -3
Cc1cc(C)nc(SCCS(=O)(=O)Cc2ccccc2)n1 | 13 | 4% | 10 | 0.7 | -4
Additional structures follow:
SMILES | YopH inh | Mtb H37Rv | Arbovirus anti | RecA splice inh | Mtb bLac sens | others
NC(=O)c1ccccc1N1CCCCC1 | / | 6% | / | 3.5 | -2
CCc1nnc(NC(=O)c2ccc(OC)cc2OC)s1 | -25 | 91% | 5 | -2.1 | 8 | Arbovirus anti repeat=7
CC1CC(C)(C)NC(=S)N1CCCC(=O)Nc1ccc2c(c1)OCCO2 (configuration not stated) | / | 5% | 0 | 1.5 | -11
O=C(NCc1cccs1)C1CCN(C(=O)NCc2ccccc2)CC1 | -27 | -6% | 3 | -2.7 | -9
CCCCCCCC#Cc1ccccc1/C=N/S(=O)c1ccc(C)cc1 (configuration not stated) | -27 | / | -6 | / | 4
Nc1c(C(=O)NCc2ccccc2)c2nc3ccccc3nc2n1CCCN1CCOCC1 | 0 | 13µM* | -31 | -384 | 99
COc1ccc(CNC(=O)c2sc(=S)n(-c3ccc(OC)cc3)c2N)cc1 | 15 | -1% | -3 | 0.0 | 6
